Bioassay records deposited in PubChem BioAssay by ICCB-Longwood Screening Facility, Harvard Medical School.
Polio RdRp inh: poliovirus RNA polymerase inhibition; poliovirus polymerase elongation, fluorescence polarization; stronger effect = lower value; % elongation, % (compound at 16.7 µg/mL); hit rate 0.66% among 150,000; AID 588519; in the data active means % elongation below about 90%; further: some results filed as inactive read as strong as hits
Target sequence (P03300 1749-2209 limits assumed): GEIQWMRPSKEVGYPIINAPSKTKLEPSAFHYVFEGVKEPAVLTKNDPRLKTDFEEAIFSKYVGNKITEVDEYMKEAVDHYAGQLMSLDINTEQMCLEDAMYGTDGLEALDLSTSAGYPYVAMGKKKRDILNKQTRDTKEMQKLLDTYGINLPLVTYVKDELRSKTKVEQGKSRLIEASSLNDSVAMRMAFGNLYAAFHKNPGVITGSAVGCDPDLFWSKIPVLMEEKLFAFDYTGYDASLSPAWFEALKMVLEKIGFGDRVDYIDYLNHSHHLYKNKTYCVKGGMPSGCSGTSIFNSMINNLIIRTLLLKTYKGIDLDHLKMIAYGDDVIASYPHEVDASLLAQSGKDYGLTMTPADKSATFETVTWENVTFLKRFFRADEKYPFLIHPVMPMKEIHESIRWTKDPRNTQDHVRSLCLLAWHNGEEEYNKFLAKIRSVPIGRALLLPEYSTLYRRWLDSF
Polio RdRp inh intensity: recorded beside Polio RdRp inh, whose call it bears; % elongation; measured here: total intensity read-out; formula for this scale not given here;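 total fluorescence in place of polarization; lower means less elongation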
Numbers without * were called inactive. Not all compounds are listed (hit frequency here may not be typical).

SMILES	Polio RdRp inh	Polio RdRp inh intensity
COc1ccc(-c2nc(C(=O)Nc3ccc(C(C)=O)cc3)nn2-c2cccc(Cl)c2)cc1	97	107
Cc1cccc(-c2nc(CSc3nncn4c3cc3oc(C)cc34)c(C)o2)c1	111	109
COc1ccc(NC(=O)c2c(NCc3cccc(OC)c3)sc3c2CCCC3)cc1	107	112
COc1cc(NC(=O)CCS(=O)(=O)c2ccc3c(c2)CC(=O)N3C)cc(OC)c1OC	110	112
CCC(Nc1ccc(-c2nc(-c3ccccn3)no2)cc1[N+](=O)[O-])c1ccccc1 (stereo unspecified)	110	116
O=C(Cc1ccc(F)cc1)Nc1nnc2n1CCS2	102	103
COc1ccc(OCC(=O)Nc2nnc3n2CCS3)cc1	106	115
CC1=C(c2ccc(C(C)C)cc2)S(=O)(=O)N=C1N1CCC(C(=O)NCc2ccco2)CC1	109	114
Cc1ccc(CCNC(=O)C2CCCN(c3nnc(C)c4c(C)n(-c5ccccc5)nc34)C2)cc1 (stereo unspecified)	107	103
COc1ccc(Cn2ccc3nc(C)c(C(=O)Nc4ccc(OC)c(OC)c4)cc3c2=O)cc1	103	94
O=c1c2cc3c(cc2n(Cc2ccc(F)cc2)c(=O)n1Cc1nc(-c2ccccc2)no1)OCO3	105	109
CC(=O)c1cccc(NC(=O)CSc2nc(=O)n(Cc3cccnc3)c3c2CCC3)c1	107	117
NC1=NC(c2cc(F)cc(F)c2)n2c(nc3ccccc32)N1 (stereo unspecified)	102	105
COc1ccc2c(Sc3ccccc3)c(C(=O)NCC(C)c3ccccc3)[nH]c2c1 (stereo unspecified)	102	109
COc1ccc(Oc2nc3c(c(=O)n(C)c(=O)n3C)n2Cc2ccc(Cl)cc2Cl)cc1	102	104
CCOC(=O)c1ccc2[nH]c(CSc3nnc(-c4cccc(F)c4)n3C)cc(=O)c2c1	107	112
COc1ccc(Cn2c(SCC(N)=O)nc3c(sc4ccccc43)c2=O)cc1	99	101
CCOC(=O)C1CCCN(S(=O)(=O)c2csc(C(N)=O)c2)C1 (stereo unspecified)	108	108
COc1cc(OC)c(C(=O)NCc2nc(-c3ccccc3)no2)cc1OC	107	110
COc1ccc(CNCCCSc2nnnn2-c2ccccc2)cc1	104	107
Cc1cccc(NC(=O)c2cc(S(=O)(=O)NCc3ccc4c(c3)OCO4)ccc2F)c1C	104	108
COc1ccc(N2CCN(C(=O)C3CCCN(S(=O)(=O)c4ccc5c(c4)CCCN5C(C)=O)C3)CC2)cc1 (stereo unspecified)	101	97
CC(=O)Nc1nonc1-c1nnc(SCC(=O)Nc2cc(C)cc(C)c2)n1-c1ccccc1	100	104
CCOc1cc(C2C(C(=O)Nc3ccccc3)=C(C)Nc3ncnn32)cc(Br)c1O (stereo unspecified)	103	109
COc1ccccc1C(=O)NCc1ccc2c(c1)CCN2C(=O)c1cccc(C)c1	113	109

Record cards (already shown). Order of screens: Polio RdRp inh | Polio RdRp inh intensity
Shown for COc1ccc(CNCCCSc2nnnn2-c2ccccc2)cc1 : 104 | 107
Shown for COc1ccccc1C(=O)NCc1ccc2c(c1)CCN2C(=O)c1cccc(C)c1 : 113 | 109

(cont.)
SMILES	Polio RdRp inh	Polio RdRp inh intensity
CCOc1ccc(NC(=O)c2oc3ccccc3c2NC(=O)c2c(F)cccc2F)cc1	110	106
CCc1ccccc1NC(=O)CCCN1C(=O)CCn2nc(-c3cn(C)c4ccccc34)cc21	110	108
CSc1cccc(NC(=O)C2CCN(c3nc4ccccc4[nH]3)CC2)c1	110	115
Cc1cc(O)c(CN2CCN(c3ccccc3)CC2)c2oc(=O)cc(C)c12	107	109
CCn1c(NCc2cccc(Cl)c2)nc2ccccc21	102	109
COc1ccc(NC(=O)Nc2nnc(SCC(=O)Nc3cccc(C)c3C)s2)cc1	111	100
COc1ccc(C(=O)NCCn2cc(SCC(=O)NCCc3ccc(OC)c(OC)c3)c3ccccc32)cc1	99	101
CCc1c(C)sc2c1CCN(C(=O)Nc1cc(C)ccc1OC)C2c1ccc(F)cc1 (stereo unspecified)	112	104
O=S(=O)(c1ccc(-n2cnnn2)cc1)N1CCN(c2ccccc2F)CC1	107	108
Cc1cc(S(=O)(=O)Nc2cc3c(cc2C)n(C)c(=O)c(=O)n3C)ccc1F	109	112
COc1cccc(CNC(=O)Cc2c(C(=O)O)c(C)cn2C)c1	115	106
Cc1ccc(C2c3c(oc4ccccc4c3=O)C(=O)N2c2ccc(C)cn2)cc1 (stereo unspecified)	107	108
COc1ccc(-c2nn(C)c3sc(C(=O)N4CCN(c5cccc(C)c5C)CC4)cc23)cc1OC	111	112
COc1cccc(CC(=O)Nc2ccc3nc(Nc4cccc(C(F)(F)F)c4)cc(C)c3c2)c1	108	113
COc1cccc(CNC(=O)c2ccc3c(c2)nc2n3CCOC2)c1OC	105	110
CC(C)c1ccc2oc(-c3cccc(NC(=O)c4ccc5c(c4)OCCO5)c3)nc2c1	108	108
CCN1CCN(C(=O)c2ccc3c(c2)N(Cc2cc(C)ccc2C)C(=O)c2ccccc2S3(=O)=O)CC1	107	108
O=C(Nc1ccc(F)c(Cl)c1)C1CCN(S(=O)(=O)c2ccc3c(c2)CCCN3C(=O)C2CCC2)CC1	111	113
CCOC(=O)N1CCN(Cc2nc3cc(NC(C)=O)ccc3n2C(C)C)CC1	106	105
C=Cc1ccc(Cn2c(C(=O)O)c(CNCc3ccc(F)cc3)c3ccc(C)cc32)cc1	111	110
Cc1ccc(NS(=O)(=O)c2ccc3c(c2)n(C)c(=O)n3C)c(C)c1	109	112
Cc1[nH]c2ccc(C(=O)NCCc3ccccc3Cl)cc2c1C	104	110
Cc1ccccc1C(=O)Nc1nnc(SCc2cc(=O)c3c(C)ccc(C)c3[nH]2)s1	104	102
COc1cc(Cl)c(C)cc1NC(=O)CSc1cc(=O)n(C)c2cc(Cl)ccc12	107	106
Cc1nc2ccccn2c(=O)c1NC(=O)c1ccccc1Cl	108	101

By substructure, the compounds so far containing an NH in an aromatic ring
SMILES	Polio RdRp inh	Polio RdRp inh intensity
COc1ccc2c(Sc3ccccc3)c(C(=O)NCC(C)c3ccccc3)[nH]c2c1 (stereo unspecified)	102	109
CCOC(=O)c1ccc2[nH]c(CSc3nnc(-c4cccc(F)c4)n3C)cc(=O)c2c1	107	112
CSc1cccc(NC(=O)C2CCN(c3nc4ccccc4[nH]3)CC2)c1	110	115
Cc1[nH]c2ccc(C(=O)NCCc3ccccc3Cl)cc2c1C	104	110
Cc1ccccc1C(=O)Nc1nnc(SCc2cc(=O)c3c(C)ccc(C)c3[nH]2)s1	104	102

(further entries)
SMILES	Polio RdRp inh	Polio RdRp inh intensity
Cc1nn(-c2ccccc2)c(OC(=O)c2ccccc2)c1S(=O)(=O)c1ccccc1	103	105
CC(C)(C)OC(=O)N1CCC(c2c(C(=O)O)cnn2-c2ccc(F)cc2F)CC1	108	110
Cc1nc(-c2ccccc2)sc1-c1ccc(SCC(=O)NCc2ccc(Cl)cc2)nn1	106	101
CC(C)c1ccc(NC(=O)CN2C(=O)C3(SCC(=O)N3c3ccc(F)cc3)c3ccccc32)cc1 (stereo unspecified)	106	100
Cc1ccc(Nc2cc(=O)[nH]c(=O)[nH]2)cc1C	102	109
COc1ccc2c(c1)-c1nc(NC(=O)c3ccc(C)cc3)sc1CC2	106	110
O=C(Nc1nc2ccccc2s1)c1cccn(Cc2ccccc2)c1=O	101	110
COc1ccc(CNC(=O)CSc2ncc3c(n2)-c2cc(Cl)ccc2N(C)S3(=O)=O)cc1	109	115
COC(=O)c1sccc1S(=O)(=O)N1CCN(c2cccc(C)c2)C(C)C1 (stereo unspecified)	106	111
COc1ccc(NC(=O)CSc2nc3cc(OC)c(OC)cc3c3nc(-c4ccccc4)nn23)cc1Cl	111	104
O=C(NCc1cccc(F)c1)c1ccc(NC(=O)c2nsc3ccccc23)cc1	115	117
COC(=O)c1scc(-c2ccc(C)cc2)c1S(=O)(=O)Nc1ccc(N(C)C)cc1	99	98
COc1ccc(CCNC(=O)Cn2c(=O)n(-c3ccc(C)c(C)c3)c(=O)c3c(C)c(C)sc32)cc1OC	105	105
O=C(CN1C(=O)COc2ccc(S(=O)(=O)N3CCCC3)cc21)N1CCN(c2ccc(F)cc2)CC1	100	104
Cc1ccc(Oc2nc3ccccn3c(=O)c2/C=C(\C#N)c2nc3ccccc3s2)c(C)c1	82	136
Cc1cc(C)c(NC(=O)C2CCN(C(=O)N3CCOc4ccccc43)CC2)c(C)c1	110	109
CC1=C(C(=O)Nc2ccccc2)C(c2cccc(Cl)c2)n2nc(SCC(=O)c3ccc(C)cc3)nc2N1 (stereo unspecified)	106	110
CCOc1ccc(-c2cc(C(=O)NCc3ccccc3Cl)c3ccccc3n2)cc1	108	108
COc1ccc(C2C(C(=O)Nc3ccc(Cl)cc3)=C(C)Nc3nc(SCc4cccc(C)c4)nn32)cc1OC (stereo unspecified)	113	117
CCC1CCCCN1C(=O)c1c[nH]c2ccc(S(=O)(=O)Nc3cccc(OC)c3)cc2c1=O (stereo unspecified)	102	108
CCOc1ccccc1CNC(=O)c1cc2c(=O)n(Cc3ccco3)ccc2nc1C	111	105
CCN(C(=O)CSc1nc2n[nH]c(C)c2c(=N)n1-c1cccc(OC)c1)c1cccc(C)c1	110	106
O=S(=O)(c1ccc(C2CCCCC2)cc1)N1CCN(c2ccc(Cl)c(Cl)c2)CC1	102	103
CCOc1ccccc1NC(=O)C1CCCN1S(=O)(=O)c1ccc2nc(-c3ccccc3)[nH]c2c1 (stereo unspecified)	106	105
CCOc1ccccc1C(=O)N1CCCCC1CCN1CCOCC1 (stereo unspecified)	106	103

(next part)
SMILES	Polio RdRp inh	Polio RdRp inh intensity
CC1=C(C(=O)Nc2ccc(C)cc2C)C(c2cccs2)n2nc(SCc3ccccc3Cl)nc2N1 (stereo unspecified)	110	110
Cc1ccc(-c2n[nH]c3c2C(c2cccc(O)c2)N(c2ccc(C(=O)O)cc2)C3=O)cc1 (stereo unspecified)	107	103
Cc1cccc(Cn2cc(S(=O)(=O)c3cccc(C)c3)c(=O)c3cc(F)c(N4CCOCC4)cc32)c1	113	116
O=C(c1ccc2c(c1)CCN2S(=O)(=O)c1ccc(Cl)cc1)N1CCN(c2ccc(F)cc2)CC1	106	110
COc1ccc(OCC(=O)OCc2cc(=O)n3nc(-c4cccs4)sc3n2)cc1	109	110
COc1cccc(CCNC(=O)c2c(O)nc3c(C)cccn3c2=O)c1	112	105
Cc1nn(-c2ccccc2)c(OC(=O)c2ccccc2F)c1S(=O)(=O)c1ccccc1	104	104
Cc1ccc(Cl)cc1NC(=O)C(=O)NCCc1sc(-c2ccc(F)cc2)nc1C	115	115
Cc1ccc(-c2cc(C(=O)NC(C)c3ccccc3)c3ccccc3n2)cc1C (stereo unspecified)	111	114
CSc1ccc(-c2nc3ccc(C)cn3c2Nc2ccccc2C)cc1	109	106
CCc1ccccc1NC(=O)c1ccc(Cn2nc(N3CCN(c4ccccc4)CC3)ccc2=O)o1	105	108
Cc1cccc2c1-c1sc(C(=O)NCCCN3CCN(c4ccccc4F)CC3)cc1CO2	108	112
CCc1ccc2ncc3c(-c4ccccc4)nn(-c4ccccc4)c3c2c1	108	107
COc1nc(-c2ccccc2)ccc1-c1noc(-c2ccccc2Br)n1	102	105
CCOc1ccc(CCNC(=O)c2sc3ncccc3c2-n2c(C)ccc2C)cc1	108	100
Cn1c(=O)oc2cc(S(=O)(=O)N3CCC(C(=O)NCc4ccc(F)cc4)CC3)ccc21	108	107
CCN(CC)c1ccc(NC(=O)c2cc3c(=O)n4cccc(C)c4nc3n2C)c(C)c1	110	107
CCOc1ccc(CNS(=O)(=O)c2ccc3c(c2)CCCN3C(C)=O)cc1OC	104	108
CCCSCCCNC(=O)C1CCN(c2nc3ccccc3nc2C(F)(F)F)CC1	99	106
CCCc1nc2nc(C)c(NS(=O)(=O)c3ccc(CC(C)C)cc3)c(=O)n2[nH]1	102	101
COc1ccc(Br)c2c1-c1nc(NC(=O)c3ccc(F)cc3)sc1C2	99	100
CCc1cnc2c(c1SCc1c(F)cccc1Cl)c(=O)n(C)c(=O)n2C	101	107
CCOc1ccc(CCNC(=O)c2ccc3c(c2)nc2n3CCOC2)cc1OCC	111	116
COc1ccc(CNC(=O)Cn2nc(C)n3cccc3c2=O)cc1	107	110
COc1ccc(C)cc1NC(=O)c1cc(S(=O)(=O)NC2CCCCCC2)ccc1F	100	103

Pulled by compound from above (5):
SMILES	Polio RdRp inh	Polio RdRp inh intensity
CCc1cnc2c(c1SCc1c(F)cccc1Cl)c(=O)n(C)c(=O)n2C	101	107
CCN(CC)c1ccc(NC(=O)c2cc3c(=O)n4cccc(C)c4nc3n2C)c(C)c1	110	107
Cc1nn(-c2ccccc2)c(OC(=O)c2ccccc2F)c1S(=O)(=O)c1ccccc1	104	104
CCOc1ccc(CCNC(=O)c2ccc3c(c2)nc2n3CCOC2)cc1OCC	111	116
CCc1ccc2ncc3c(-c4ccccc4)nn(-c4ccccc4)c3c2c1	108	107

Next section:
SMILES	Polio RdRp inh	Polio RdRp inh intensity
Cc1cc(C)c(NC(=O)CCn2c(=O)c3cccn3c3ccccc32)c(C)c1	105	113
CCNC(=O)C1CCCN(c2nn3cc(-c4ccc(C)cc4)nc3s2)C1 (stereo unspecified)	103	104
CNC(=O)c1cc2n(n1)CCCN(Cc1ccc(F)cc1)C2=O	110	110
Cc1ccc(-n2ncc(C(=O)NCCN3CCCC3)c2C2CCN(C(=O)OC(C)(C)C)CC2)cc1C	109	112
COc1cc(OC)c(NC(=O)N2CCC(CN3CCCC3)CC2)cc1Cl	113	116
O=C(C1CCC(Cn2c(=O)c3sccc3n(Cc3ccc(F)cc3)c2=O)CC1)N1CCOCC1 (stereo unspecified)	103	106
CCOC(=O)c1cccc(NC(=O)c2cc3cc4ccc(C)cc4nc3s2)c1	118	116
Cc1ccc(C)c(CN2C(=O)c3ccccc3S(=O)c3ccc(C(=O)N4CCC(C)CC4)cc32)c1 (stereo unspecified)	110	110
O=C(CC1N=C2c3ccccc3N=C(SCc3cccc(Cl)c3)N2C1=O)NCCc1ccccc1 (stereo unspecified)	108	102
